# NPR1 antag = blocks ANP-stimulated signaling of human Npr1 receptor; HEK293 hNpr1 GloSensor cGMP, ANP-stimulated luminescence; Potency, µM (titrated, usually from 46.3 µM), inactives show at the top dose activity change, negative = inhibition, hits mostly inhibitors; P16066; hit rate 1.6% among 76,000; active = well fitted inhibition curve with a large enough effect; inconclusive = small, poorly fitted or top-dose-only effect; inactive = no such curve, though single readings can be large or run the other way;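 note: nearly all actives have a fitted effect of over 60% in size; nearly all hits also lower the signal before the agonist is added; a reference antagonist and vehicle were the controls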
# Target sequence (P16066 whole entry, looked up): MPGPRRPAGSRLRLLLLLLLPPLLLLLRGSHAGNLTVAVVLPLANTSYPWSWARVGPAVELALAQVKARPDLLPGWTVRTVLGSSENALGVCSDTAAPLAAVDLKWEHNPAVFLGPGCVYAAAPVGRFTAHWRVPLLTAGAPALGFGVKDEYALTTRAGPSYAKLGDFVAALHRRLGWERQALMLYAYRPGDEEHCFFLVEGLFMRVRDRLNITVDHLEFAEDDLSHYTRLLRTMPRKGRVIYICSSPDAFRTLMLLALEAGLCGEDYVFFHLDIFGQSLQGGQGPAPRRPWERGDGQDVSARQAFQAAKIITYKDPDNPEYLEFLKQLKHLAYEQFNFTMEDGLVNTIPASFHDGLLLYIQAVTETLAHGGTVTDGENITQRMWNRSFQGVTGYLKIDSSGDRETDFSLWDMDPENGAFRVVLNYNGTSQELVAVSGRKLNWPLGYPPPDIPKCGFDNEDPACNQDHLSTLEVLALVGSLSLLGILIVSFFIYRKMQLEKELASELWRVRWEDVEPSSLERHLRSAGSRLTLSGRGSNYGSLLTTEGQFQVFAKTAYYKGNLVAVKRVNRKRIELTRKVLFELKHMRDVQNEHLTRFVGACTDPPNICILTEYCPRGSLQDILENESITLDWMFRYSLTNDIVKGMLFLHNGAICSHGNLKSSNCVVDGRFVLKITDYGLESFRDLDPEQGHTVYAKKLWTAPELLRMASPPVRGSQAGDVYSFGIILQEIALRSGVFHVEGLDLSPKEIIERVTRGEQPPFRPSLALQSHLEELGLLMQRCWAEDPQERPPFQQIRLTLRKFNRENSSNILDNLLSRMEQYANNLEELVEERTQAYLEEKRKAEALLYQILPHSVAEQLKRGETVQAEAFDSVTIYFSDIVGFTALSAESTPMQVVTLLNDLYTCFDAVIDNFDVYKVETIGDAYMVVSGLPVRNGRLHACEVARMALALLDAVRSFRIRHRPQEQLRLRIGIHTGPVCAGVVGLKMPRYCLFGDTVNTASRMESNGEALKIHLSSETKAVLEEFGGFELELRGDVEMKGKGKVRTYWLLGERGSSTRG
#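 Compound pre-incubated 30 min at room temperature on GloSensor-loaded HEK293 cells stably carrying hNpr1 and the pGS-40F cGMP biosensor. Stimulation uses hNppA at 0.1 nM final; luminescence is taken at baseline and 20 min post-agonist.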
# Active calls of the source: *; ? = inconclusive; [ ] = another dose, or the depositor's remark. % is set by controls: 0 for no effect and ±100 for the full control effect; potency is the fitted concentration of half-maximal effect.
SMILES,NPR1 antag
O=S(=O)(c1ccc(C(F)(F)F)cc1)N1CCC(C2CCNC2)CC1 (stereo unspecified),0%
COc1ncccc1-c1cc2c(nc1OC)nc(CC1CC1)n2C,-4%[70.6 µM]
Cc1ccc(-c2nc(C3CC(=O)N(c4ccc(Cl)cc4)C3)no2)cc1C (stereo unspecified),-5%
O=C(c1ccsc1)N1CCCCCC1c1nnc(-c2ccccc2)o1 (stereo unspecified),-8%
CN1c2cc(C(=O)NCCCc3ccccc3)ccc2C(=O)N2CCCCC21 (stereo unspecified),-5%
COCCNS(=O)(=O)c1cc(C(=O)O)cc(-c2cccc(C(C)N(C)C)c2)c1 (stereo unspecified),2%
CNC(=O)c1noc([C@@H]2CC(F)(F)CN2Cc2ccc[nH]2)n1,2%
COc1ccc(C(=O)NCCc2noc(-c3ccncc3)n2)cn1,-1%
C[C@@H](NC(=O)Nc1ccc(Cl)cc1)c1onc(-c2ccc(F)cc2)c1C(=O)O,1%[70.6 µM]
O=C(NC1CCCCC1)N1CCC(N2CC3CC(C2)[C@H]2CCCC(=O)N2C3)CC1 (stereo partly specified),-2%
O=C(NC1CCN(c2cc(C(F)(F)F)ncn2)CC1)c1ccccc1Cl,?
O=C(NCc1ccccc1)[C@@H]1Cc2nc[nH]c2CN1Cc1cc2ccccc2o1,-1%[70.6 µM]
OCc1ccc(CN2Cc3[nH]cnc3C[C@H]2c2nc(-c3ccncc3)no2)o1,3%[70.6 µM]
Cc1cc(C)cc(N2CCC(NC(=O)c3cc(C)ccc3C)C2=O)c1 (stereo unspecified),4%
CC(C)C(=O)N1CCC2(CC1)N(c1ccccc1)C(=O)CS2(=O)=O,4%
Cc1ccc(NC(=O)N2CC[C@H]3C(=O)NCCCCCN(Cc4cccnc4)[C@@H]3C2)cc1C,-5%
COc1ccc(C2Cn3nnc(C(=O)N4CCN(C(=O)Cc5ccccc5Cl)CC4)c3CO2)cc1 (stereo unspecified),?
Cc1cccc(N(CC(=O)N2CC[C@@](C)(O)[C@@H](O)C2)S(C)(=O)=O)c1,4%
COc1ccc(C(=O)N2CCCN(c3cc(-c4ccc(Br)cc4)[nH]n3)CC2)cc1F,11µM*
O=C(Cc1cccc(F)c1)N1CCC2(CC1)NC(=O)N(Cc1ccccc1Cl)C2=O,?
COc1ccc(-c2ccc3ncc(Nc4ccccc4Cl)n3n2)cn1,-1%[70.6 µM]
Cn1c(=O)[nH]cc(CC(=O)NCc2cccnc2-n2ccnc2)c1=O,2%
CNC(=O)[C@@H]1C[C@H](Oc2cccnc2)CN1C(=O)c1cc(C)n(C)n1,0%
CC(C)Oc1ccc(CNC(=O)CCC2CCN(S(=O)(=O)c3ccccc3)CC2)cc1,?
COc1cccc(NC(=O)O[C@@H]2CO[C@H]3[C@@H]2OC[C@@H]3Nc2nccc(-c3cccc(F)c3)n2)c1,-16%

# (more compounds)
SMILES,NPR1 antag
C=CCNC(=O)C[C@@H]1CCN(C(=O)C2CC2)C[C@@H]1CC,0%[70.6 µM]
CCCN(CC1CCOC1)C(=O)Nc1ccc(C)c(Cl)c1 (stereo unspecified),-1%
NC(=O)c1cccnc1OC1CCNCC1,0%
COc1ccc(Cl)cc1-c1ccc2c(c1)C(=O)N1CC[C@H](NC(=O)NC(C)C)[C@H]1C(=O)N2,2%
CN(CC1(C)CCOCC1)C(=O)c1cc(Cl)ccc1F,-4%
COCC(=O)Nc1ccc([C@@H](O)[C@H]2COCC(=O)N2)cc1,-3%[70.6 µM]
Cc1cccc(OCC(=O)N2[C@@H]3CC[C@H]2CC(NC(=O)c2ccncc2)C3)c1 (stereo partly specified),6%
COCCC(=O)N1CCCCCCNC(=O)[C@@H]2C[C@@H](C(=O)N3CCN(c4ccccn4)CC3)C[C@@H]21,-2%
CCCCN1C(=O)NC(c2ccc(OC)cc2)C2=C1COC2=O (stereo unspecified),-1%
COc1ccc(Nc2cnc3ccc(-c4cccc(CO)c4)nn23)cc1,-23%[70.6 µM]
COc1ccc(C(=O)N2CCc3ccc(C(=O)NCc4ccc5c(c4)OCO5)cc32)cc1,-22%
CC(C)c1noc([C@@H]2C[C@H]3C(=O)NCCCCCCN(C(=O)c4ccncc4)[C@H]3C2)n1,1%
O=C(O)C[C@@H]1CCN(C(=O)C2CCCCC2)C[C@@H]1CCN(CCN1CCOCC1)c1ccccc1,2%
CCCOc1ccccc1CCCNC(=O)[C@H]1CCC[C@@H](O)C1,5%
COc1ccc(CCN2Cc3cc(NC(=O)Cc4ccc(F)cc4)ccc3OC(C)C2=O)cc1 (stereo unspecified),-6%
O=C(CC1CCCCC1)N1CCn2c(nnc2[C@@H]2C[C@@H](O)CN2Cc2ccccc2)C1,7%
CN(C)C[C@H]1C[C@H](CO)CN(C(=O)c2ccccc2OCc2ccccc2)C1,1%
Cc1cc(=O)n(CC(=O)Nc2ccc3c(c2)OCO3)c(-c2ccc(Cl)cc2)n1,-24%
CC(C)(C)CN[C@H]1C[C@@H](Cc2cc(COc3ccccc3)on2)C1(C)C,-12%[70.6 µM]
CN1CC(=O)N(C2CCCC2)Cc2c(NCc3cccc(F)c3)ncnc21,3%
Cc1cc2nc3n(c(=O)c2n1CC(=O)Nc1ccc(Br)cc1)CCCCC3,-11%
CC(C)CCC(=O)N1C[C@@H](CO)[C@H](c2ccccn2)C1,3%
COCCC1(NC(=O)C2CCOCC2)CCN(C(=O)CCc2ccc(OC)cc2)CC1,4%
C[C@H]1[C@@H]2[C@H]3OC(=O)[C@@H](C)[C@@H]3CC[C@@]2(C)CC[C@@H]1NC(=O)c1ccccn1,-14%[70.6 µM]
COc1ccc(-c2noc(-c3cccn3CC(=O)Nc3ccccc3C(C)C)n2)cc1F,1%

# (more compounds)
SMILES,NPR1 antag
CC(C)N1C(=O)C(CC(=O)N(C)Cc2cccnc2)=C2CCCCC21 (stereo unspecified),-11%
CC1=NOC2(CCN([S+](=O)([O-])c3c(C)noc3C)C2)C1 (stereo unspecified),-15%[70.6 µM]
O=C(Cc1ccc(F)cc1)N1CCC2(CC1)CN(Cc1ccccc1)CC2CO (stereo unspecified),-28%
CCn1nc(C2CCOCC2)nc1C1(c2ccccc2)CC1,-6%
O=C(NCCc1c[nH]c2ccccc12)[C@@H]1C[C@H]2C(=O)NCCCCCCN(C(=O)c3ccco3)[C@H]2C1,-21%
CN1CCN(Cc2cn3c(=O)n(C)cc(-c4cccc(OC(F)(F)F)c4)c3n2)CC1,1%[70.6 µM]
CCCNC(=O)C1C(c2ccc(NC(=O)c3ccco3)cc2)OC(=O)N1Cc1ccccc1 (stereo unspecified),5%
CS(=O)(=O)N1C[C@H]2CCN(C(=O)c3ccc4[nH]ccc4c3)C[C@H]21,-1%
COCCNC(=O)c1ccc2c(c1)OCCN(c1cccc(OC(F)(F)F)c1)C2,-26%[70.6 µM]
O=C(O)C[C@@H]1CCN(C(=O)NC2CCCCC2)C[C@@H]1CCN1C[C@@H]2C[C@H](C1)c1cccc(=O)n1C2,-1%
Cc1ccc(Nc2ccc3c(n2)CN(C)C(=O)CO3)c(C)c1,?
CC(=O)NC[C@H]1OC[C@@H](NC2CCCCC2)[C@@H]1O,5%[70.6 µM]
COc1ccc(CC(=O)NC2CCN(c3cc(-c4ccc(Cl)cc4)[nH]n3)C2)cc1OC (stereo unspecified),10µM*
COc1cccc(C(=O)N2CC[C@H]3COC(=O)N3c3cc(F)ccc3C2)c1,7%[70.6 µM]
O=C(c1ccco1)N1CCC(n2cnnc2-c2ccccc2)CC1,-3%
O=C(NCc1cc2n(n1)CCN(C1CCCCC1)C2)Nc1cccc(F)c1,0%
COc1ccccc1NC(=O)N1CCc2cc(OC)c(OC)cc2C1CNC(=O)c1ccccc1 (stereo unspecified),0%
O=C(CCC1CCN(C(=O)c2ccccc2Cl)CC1)N1CCc2ccccc2C1,?
CC(=O)c1cccc(NC(=O)CN2C(=O)NC(c3ccc(C)cc3)C3=C2COC3=O)c1 (stereo unspecified),0%
Cc1cccc(-c2noc(CCC(=O)N3CCC(C)(c4noc(C5CC5)n4)CC3)n2)c1,?
O=C(Nc1nc2ccccc2s1)c1ccc2c(c1)OCCN(CCC(F)(F)F)C2,?
Cc1nncn1C1CCN(S(=O)(=O)c2cc(F)cc(F)c2)CC1,2%
O=C(CN1CC2CC(C1)[C@H]1CCCC(=O)N1C2)NCCN1CCOCC1 (stereo partly specified),0%
Cc1cnc(C)n1C1CCCN(C(=O)C2CCOCC2)C1 (stereo unspecified),-1%
CCCNC(=O)c1cc2sc(C)c(CN3CCCCC3)c2[nH]1,-10%

# The list goes on.
SMILES,NPR1 antag
CCn1cc(S(=O)(=O)N2CCC(Cc3ncc(C)n3Cc3ccc(F)cc3)CC2)cn1,8%
CCn1ccc(C(=O)N2[C@@H]3CC[C@H]2CC(NC(=O)c2ccc(F)cc2)C3)n1 (stereo partly specified),-1%
CC(C)(C)C(=O)N1CCC2(CCCN(Cc3cccc(F)c3F)C2=O)C1 (stereo unspecified),0%
CCOc1ccccc1C1NC(=O)N(CC(=O)N(C)c2ccccc2)C2=C1C(=O)OC2 (stereo unspecified),-3%
CCN(CC)C(=O)[C@@H]1CCC[C@@H](NCc2nccn2C)CN(C)C(=O)C1,-1%[70.6 µM]
COc1ccc(N2Cc3c(NC4CCCCCC4)ncnc3N(C)CC2=O)cc1,-1%
c1ccc(-c2ccnc3nc(C4CC4)nn23)cc1,-1%
COCc1noc([C@@H]2CN(C(=O)CC3CCCC3)C[C@H]2CO)n1,9%
Cc1cc2cc(-c3c(C)noc3C)nc(NC3CC3)c2o1,2%[70.6 µM]
Cc1noc(-c2nc(-c3cccc(C(F)(F)F)c3)no2)n1,-1%
O=C(c1ccncc1)N1CC(c2nc(CCc3ccccc3)no2)C1,0%
COC1CCCN(C(=O)c2cc(-c3ccc(F)cc3)cc3ncn(C)c23)C1 (stereo unspecified),1%[70.6 µM]
COc1cccc(C2Cn3nnc(-c4nc(-c5cccc(C)c5)no4)c3CO2)c1 (stereo unspecified),1%
O=C1OC[C@@H]2CCN(Cc3cccc(Cl)c3)Cc3ccc(F)cc3N12,0%[70.6 µM]
Cc1nc(N2CCC(NC(=O)c3cccc(F)c3)CC2)cc(C(F)(F)F)n1,-19%
COc1cccc(NC(=O)c2c(-c3cnn(C)c3NCc3ccc(C#N)cc3)noc2C)c1,-2%
Cc1ccc(-c2noc([C@@H]3C[C@@H](O)CN3Cc3ncc[nH]3)n2)cc1F,-10%[70.6 µM]
COCCN1C(=O)Cc2ccccc2C1C(=O)NCC1CCCCC1 (stereo unspecified),2%
O=C(CC1CCCN(c2cn[nH]c(=O)c2)C1)N1CCCCC1 (stereo unspecified),16%
COc1ccccc1C(=O)NCC1Cn2cccc2C(=O)N1C (stereo unspecified),0%
Cc1ccc(CN2CCN(C(=O)CC3CCOCC3)CC2)cc1,-2%
CN(C)c1ccc(C(=O)N2CCC(Cc3noc(-c4ccccc4)n3)C2)cc1 (stereo unspecified),-29%
CC(C)n1cc2cc(C(=O)NCc3ccccn3)sc2c1,-4%
COc1cccc(CN2CCn3c(nnc3[C@@H]3C[C@@H](O)CN3Cc3cccnc3)C2)c1OC,9%
NCCC1CN(Cc2cc3ccccc3s2)CCO1 (stereo unspecified),2%

# Following part:
SMILES,NPR1 antag
Cc1cc(C)cc(C(=O)N2CC(C(=O)NCCc3ccncc3)C3(CCOCC3)C2)c1 (stereo unspecified),-1%
CCS(=O)(=O)N1C[C@@H](COC)[C@H](C(=O)NC)C1,2%
CCN1CC(c2ccccc2)CC2(CCN(C(=O)c3cnn(C)c3)CC2)C1 (stereo unspecified),-2%
COc1ccc(NC(=O)Cn2c(-c3ccccc3)nc(C)c(CCO)c2=O)cc1OC,-4%
COCCCNc1cc(-c2ccsc2)nc2c(C)noc12,1%[70.6 µM]
Cc1ccccc1CNC(=O)[C@@]12CCCC[C@H]1N(C)C(=O)CC2,2%
CC(=O)N1CCC(C2CCN(C(=O)C3CC=CC3)C2)CC1 (stereo unspecified),-1%
COc1ccc(C(=O)N2CCCC(CO)CCNC(=O)CC2)cn1 (stereo unspecified),1%

# Four structures already listed, sorted by heavy-atom count, rising:
SMILES,NPR1 antag
CC(=O)N1CCC(C2CCN(C(=O)C3CC=CC3)C2)CC1 (stereo unspecified),-1%
Cc1ccccc1CNC(=O)[C@@]12CCCC[C@H]1N(C)C(=O)CC2,2%
COc1ccc(C(=O)N2CCCC(CO)CCNC(=O)CC2)cn1 (stereo unspecified),1%
Cc1cc(C)cc(C(=O)N2CC(C(=O)NCCc3ccncc3)C3(CCOCC3)C2)c1 (stereo unspecified),-1%

# In the list so far, 6 contain a furan ring, fused or not.
SMILES,NPR1 antag
O=C(NCc1ccccc1)[C@@H]1Cc2nc[nH]c2CN1Cc1cc2ccccc2o1,-1%[70.6 µM]
OCc1ccc(CN2Cc3[nH]cnc3C[C@H]2c2nc(-c3ccncc3)no2)o1,3%[70.6 µM]
O=C(NCCc1c[nH]c2ccccc12)[C@@H]1C[C@H]2C(=O)NCCCCCCN(C(=O)c3ccco3)[C@H]2C1,-21%
CCCNC(=O)C1C(c2ccc(NC(=O)c3ccco3)cc2)OC(=O)N1Cc1ccccc1 (stereo unspecified),5%
O=C(c1ccco1)N1CCC(n2cnnc2-c2ccccc2)CC1,-3%
Cc1cc2cc(-c3c(C)noc3C)nc(NC3CC3)c2o1,2%[70.6 µM]

# Compound activity deposited in PubChem by National Center for Advancing Translational Sciences (NCATS).

# The list is partial (hit frequency here may not be typical).
